Ecoli growth: E. coli growth inhibition, primary screen, OD600; Escherichia coli growth, 23 h; active compounds read low; OD600 absorbance (no concentration beside the values); 330,000 tested, 0.21% active;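 active means OD600 absorbance below the run mean of sample wells minus 3.6 SD, in any replicate, cut at about 0.56 in these data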;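 further: stock transfer was 300 nL into about 60 µL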
A1 inh: caspase 3/7 activation in MEF A1-2A-BIM cells, primary screen, A1 inhibitor project, cell-based, luminescence, HTS; Caspase-Glo 3/7 luminescence, 3 h; percent of clofoctol response, vehicle zero; AID 2462, 2010; 330,000 tested, 0.066% active; caspase activation, % (test concentration not listed);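 active means over half of replicate activation scores above 10%, or exactly half above 10 with the replicate mean above 10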;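 further: wells of about 30 µL received 50 nL stock; many hits fall short of the cut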
AF4-AF9 inh: inhibitors of AF4 peptide binding to AF9, primary screen, biochemical, AlphaScreen, biotin-AF4 peptide, FLAG-AF9, single point; 350,000 tested, 0.47% active; Protein AF-9 (Homo sapiens), P42568; AID 651704, 2012; inhibition, % at 10 µM;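 active means every replicate reaching a set inhibition limit, whatever the replicate mean, cut at about 25% in these data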;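 further: 0% = plate neutral control median and 100% = total signal loss; the record names both 10 and 1 µM as test concentration; the first replicate is given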
Target sequence (P42568 whole entry, looked up): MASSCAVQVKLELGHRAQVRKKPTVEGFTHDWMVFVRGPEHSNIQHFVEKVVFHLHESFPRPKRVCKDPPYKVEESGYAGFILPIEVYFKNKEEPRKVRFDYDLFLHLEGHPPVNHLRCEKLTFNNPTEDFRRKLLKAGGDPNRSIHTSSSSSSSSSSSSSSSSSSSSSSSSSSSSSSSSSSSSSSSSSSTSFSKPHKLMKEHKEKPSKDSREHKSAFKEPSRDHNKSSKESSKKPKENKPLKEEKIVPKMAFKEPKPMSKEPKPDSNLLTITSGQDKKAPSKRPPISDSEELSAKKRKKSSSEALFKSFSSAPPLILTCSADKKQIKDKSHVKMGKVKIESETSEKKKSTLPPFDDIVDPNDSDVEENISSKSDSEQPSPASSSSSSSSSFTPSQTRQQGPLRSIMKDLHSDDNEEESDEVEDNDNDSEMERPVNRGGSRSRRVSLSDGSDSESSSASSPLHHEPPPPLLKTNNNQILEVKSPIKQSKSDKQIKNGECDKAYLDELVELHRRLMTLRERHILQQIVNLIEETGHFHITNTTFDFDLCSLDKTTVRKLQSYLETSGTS
FGF22 binding: binders of human FGF22 protein, primary screen, FGF22 synaptogenesis inhibitor project, biophysical, thermal shift, single point. recombinant FGF22 thermal shift, SYPRO orange fluorescence; percent of sucrose octasulfate shift, DMSO zero. 340,000 tested, 1.5% active. AID 651658, 2012. Fibroblast growth factor 22 (Homo sapiens), Q9HCT0. calls only at 9.99 µM;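 active means melting point raised past a set limit in the mean and every replicate; three in four hits are not shown here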
Target sequence (Q9HCT0 whole entry, looked up): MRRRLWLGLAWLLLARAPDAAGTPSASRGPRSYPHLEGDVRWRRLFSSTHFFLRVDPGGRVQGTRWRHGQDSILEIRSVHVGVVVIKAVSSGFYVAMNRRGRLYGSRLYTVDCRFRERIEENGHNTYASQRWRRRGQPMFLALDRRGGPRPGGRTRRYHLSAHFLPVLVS
Beta cell apopt: inhibitors of cytokine-induced beta cell apoptosis, primary screen, luminescence; INS-1E cytokine-induced death, ATP luminescence, 48 h; percent of positive-control rescue, neutral wells zero; protection from apoptosis, % (concentration not given with the values); 300,000 tested, 0.8% active;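 active means all replicates at 75% or more, or half of them and the mean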;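 further: 0% = cytokine-treated negative control wells and 100% = positive control rescue; higher means more ATP so stronger rescue from cytokine killing; wells of about 40 µL received 100 nL stock; the first replicate is given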
T cruzi inh: inhibitors of intracellular T. cruzi growth, primary screen, luminescence, NIH3T3 host cells | T. cruzi beta-gal in NIH3T3, 90 h | inhibition, % (no concentration beside the values) | 300,000 tested, 1.4% active | AID 1885, 2009;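 active means mean inhibition across valid replicates above about 55%, limit read from the data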;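 further: signal also drops with host cell toxicity which is not excluded here; 0% = plate median of DMSO wells and 100% = zero luminescence signal; higher percent means less beta-gal luminescence so fewer parasites; stock transfer was 50 nL into about 50 µL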
UCH37 inh: inhibitors of human UCH37 deubiquitinase, primary screen, biochemical, Ub-AMC cleavage, fluorescence | Ubiquitin carboxyl-terminal hydrolase isozyme L5 (Homo sapiens), Q9Y5K5 | purified proteasome/UCH37 | inhibition, % (concentration not given with the values) | 330,000 tested, 0.33% active;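 active means mean of two replicates above 20%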;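 further: 0% = compound-free wells with enzyme and 100% = wells lacking proteasome; stock transfer was 100 nL into about 20 µL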
Target sequence (Q9Y5K5 whole entry, looked up): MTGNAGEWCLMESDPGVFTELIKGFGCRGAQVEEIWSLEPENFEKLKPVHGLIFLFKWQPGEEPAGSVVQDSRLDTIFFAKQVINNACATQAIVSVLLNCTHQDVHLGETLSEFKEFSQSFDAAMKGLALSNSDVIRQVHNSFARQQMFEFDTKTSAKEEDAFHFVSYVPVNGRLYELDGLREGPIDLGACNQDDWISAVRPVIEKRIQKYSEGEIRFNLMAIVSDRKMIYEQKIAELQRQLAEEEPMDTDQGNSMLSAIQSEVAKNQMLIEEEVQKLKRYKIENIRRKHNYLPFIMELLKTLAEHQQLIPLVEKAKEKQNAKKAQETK
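assay system = human UCH37 enzyme supplied as purified proteasome complex | amount = proteasome at 0.15 nM in the dispensed enzyme solution | schedule = 30 min compound-proteasome preincubation then 25 min substrate reaction, room temperature | measured by = fluorescence, ex 355 nm, em 460 nm | benchmarks = no-proteasome wells (full inhibition) and compound-free wells (no inhibition)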
rRNA inh HTS: reduced GFP signal of wild-type E. coli, primary screen, bacterial rRNA inhibitor project, GFP/RFP fluorescence, OD600, single point; E. coli WT GFP vs humanized-ribosome RFP mutants, 24 h; active compounds read low; DMSO median 0, no signal -100; GFP signal change (wild-type ribosome), % (concentration not given with the values); 350,000 tested, 1.6% active; AID 720706, 2013;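 active means significant combined selectivity score with lowered wild-type GFP, culture density cut under 30%, mutant RFP and density less affected; inactive means any of these conditions unmet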; further: one replicate is shown; some compounds called inactive have numbers as strong as hits
rRNA inh HTS OD600: further read-out of rRNA inh HTS, marked with its call; OD600 change, %; measured here: OD600 growth;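 optical density of the mix in the first replicate; 0 = DMSO median and -100 = no signal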
rRNA inh HTS RFP: also measured in rRNA inh HTS; calls as there; RFP signal change, %; measured here: RFP humanized mutant strains;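 first replicate; 0 = DMSO median and -100 = no signal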
Starred values were filed as active, the others as inactive.

Screening O=C(CSc1n[nH]c(-c2ccccc2Br)n1)NCCN1C(=O)CSC1=O returned Ecoli growth 0.73, A1 inh 2.2, Beta cell apopt 0, T cruzi inh -17 and UCH37 inh 0.7.
For COc1cc(SC)ccc1C(=O)N1CCN(c2ccccc2OC)CC1 the results were A1 inh -0.3, AF4-AF9 inh -6.4, FGF22 binding inactive, Beta cell apopt -2, T cruzi inh -27, rRNA inh HTS -3, rRNA inh HTS OD600 -14 and rRNA inh HTS RFP -4.6.
Screening Cc1cccc(-c2noc(CNC(=O)c3ccco3)n2)c1 returned Ecoli growth 0.65, A1 inh -0.4, AF4-AF9 inh 1.3, FGF22 binding inactive, Beta cell apopt -1, T cruzi inh 11, UCH37 inh 1.9, rRNA inh HTS -14, rRNA inh HTS OD600 -22 and rRNA inh HTS RFP 1.5.
`COc1ccc(NC(=S)Nc2cccc(C(C)=O)c2)cc1OC` gave Ecoli growth 0.64, A1 inh -0.3, AF4-AF9 inh 0.8, FGF22 binding inactive, Beta cell apopt 0, T cruzi inh 4, UCH37 inh 3.1, rRNA inh HTS -9, rRNA inh HTS OD600 -13 and rRNA inh HTS RFP -0.5.
`CC(C)(C)C(=O)NC(=S)Nc1ccccc1C(=O)NC1CCCCC1` gave Ecoli growth 0.69, A1 inh -0.8, AF4-AF9 inh 1.7, FGF22 binding inactive, Beta cell apopt -3, T cruzi inh 1, UCH37 inh -0.9, rRNA inh HTS 2, rRNA inh HTS OD600 8 and rRNA inh HTS RFP 4.0.
For CC(C)CNC(=S)N1CCC(NC(=O)c2ccco2)CC1 the results were Ecoli growth 0.67, A1 inh 0.7, AF4-AF9 inh -1.4, FGF22 binding inactive, Beta cell apopt -4, T cruzi inh -13, UCH37 inh 0.3, rRNA inh HTS 15, rRNA inh HTS OD600 10 and rRNA inh HTS RFP 0.1.
Screening CCOc1cc(C#N)c(NC(=O)c2ccco2)cc1OCC returned Ecoli growth 0.66, A1 inh -0.6, Beta cell apopt 1, T cruzi inh -47 and UCH37 inh -1.2.
For O=C(NCc1ccc(Cl)cc1)c1ccc(Cn2cc(C(F)(F)F)ccc2=O)cc1 the results were Ecoli growth 0.71, A1 inh -1.1, Beta cell apopt 1, T cruzi inh 19 and UCH37 inh 0.2.
CC1CN(C2CCCCC2)C(=O)NC1=O (centres undefined) was read as Ecoli growth 0.7, AF4-AF9 inh -41, FGF22 binding inactive, UCH37 inh 4.6, rRNA inh HTS 11, rRNA inh HTS OD600 4 and rRNA inh HTS RFP 0.7.
For CC1CCCCN1CCCNC(=O)c1nn(C)c2c1CS(=O)(=O)c1ccccc1-2 (centres undefined) the results were Ecoli growth 0.66, A1 inh -0.3, AF4-AF9 inh 0.0, FGF22 binding inactive, Beta cell apopt -8, T cruzi inh -3, UCH37 inh 2.7, rRNA inh HTS 5, rRNA inh HTS OD600 8 and rRNA inh HTS RFP 1.8.
COc1ccc(C(=O)N/C(=C/c2ccco2)C(=O)NC2CCS(=O)(=O)C2)cc1 (centres undefined) was read as A1 inh -0.4, AF4-AF9 inh 1.1, FGF22 binding inactive, Beta cell apopt -1, T cruzi inh -14, UCH37 inh -1.0, rRNA inh HTS 10, rRNA inh HTS OD600 8 and rRNA inh HTS RFP 1.5.
`O=C(Nc1nc(-c2ccccn2)cs1)c1cccc(S(=O)(=O)N2CCOCC2)c1` gave A1 inh -0.9, AF4-AF9 inh -4.1, FGF22 binding active, Beta cell apopt 68, rRNA inh HTS -28, rRNA inh HTS OD600 -44 and rRNA inh HTS RFP -1.8.
C=CCN1C(=O)C(C)(C)N(C(=O)c2cccc([N+](=O)[O-])c2)c2ccccc21 was read as Ecoli growth 0.69, A1 inh 1.1, AF4-AF9 inh 9.0, FGF22 binding inactive, Beta cell apopt 0, T cruzi inh 22, UCH37 inh 6.2, rRNA inh HTS -12, rRNA inh HTS OD600 -8 and rRNA inh HTS RFP -6.2.
`NC(=O)C1(C(N)=O)OC1c1ccc(Cl)cc1Cl` (centres undefined) gave Ecoli growth 0.7, A1 inh -0.3, AF4-AF9 inh 4.8, FGF22 binding inactive, Beta cell apopt 0, T cruzi inh 6, UCH37 inh 0.8, rRNA inh HTS 0, rRNA inh HTS OD600 3 and rRNA inh HTS RFP -2.3.
Cc1ccc(C)c(S(=O)(=O)Nc2ccc(-n3cnnn3)cc2)c1 was read as Ecoli growth 0.61, A1 inh -1.0, Beta cell apopt -2 and UCH37 inh -0.4.
Screening COc1cccc(NC(=O)C(C#N)Cc2ccncc2)c1 (centres undefined) returned Ecoli growth 0.72, A1 inh 1.9, Beta cell apopt -1, T cruzi inh 9 and UCH37 inh 2.0.
`CCNC(=O)c1sc(=S)n(-c2ccc(C)cc2)c1N` gave Ecoli growth 0.71, A1 inh 0.6, Beta cell apopt -2, T cruzi inh -22 and UCH37 inh 9.3.
Screening CCOc1ccc(NC(=O)N2CCC(NC(=O)c3ccco3)CC2)cc1 returned Ecoli growth 0.71, A1 inh -0.5, Beta cell apopt -2, T cruzi inh 0 and UCH37 inh 1.7.
`O=C(c1cccnc1)N1CCN(CCCc2ccccc2)CC1` gave Ecoli growth 0.71, A1 inh -0.5, Beta cell apopt -1, T cruzi inh -15 and UCH37 inh 5.6.
`O=C(c1cc2ccccc2o1)N1CCN(c2cccc(Cl)c2)CC1` gave Ecoli growth 0.74, A1 inh -0.4, AF4-AF9 inh -0.8, FGF22 binding inactive, Beta cell apopt 2, T cruzi inh 0, UCH37 inh -1.7, rRNA inh HTS 12, rRNA inh HTS OD600 6 and rRNA inh HTS RFP 4.1.
For Cc1ccc(C)c(N(C(=O)CNC(=O)c2ccco2)C(C(=O)NC2CCCCC2)c2cccnc2)c1 (centres undefined) the results were Ecoli growth 0.69, A1 inh 0.4, AF4-AF9 inh 4.5, FGF22 binding inactive, Beta cell apopt 0, T cruzi inh -2, UCH37 inh 4.2, rRNA inh HTS 5, rRNA inh HTS OD600 5 and rRNA inh HTS RFP -2.3.
Screening O=C(NCc1ccco1)c1ccc2ccccc2n1 returned Ecoli growth 0.7, A1 inh 0.4, AF4-AF9 inh -0.6, FGF22 binding inactive, Beta cell apopt 2, T cruzi inh -1, UCH37 inh 6.0, rRNA inh HTS -14*, rRNA inh HTS OD600 10* and rRNA inh HTS RFP 3.4*.
Screening Nc1nnn(Cc2ccccc2)n1 returned Ecoli growth 0.77, A1 inh -1.0, Beta cell apopt -2, T cruzi inh -12 and UCH37 inh -5.2.
For O=C(/C=C/c1cccc(F)c1)N(c1ccccn1)C1CCCCC1 the results were Ecoli growth 0.7, A1 inh 0.6, AF4-AF9 inh -0.4, FGF22 binding inactive, Beta cell apopt 0, T cruzi inh 1, UCH37 inh 3.7, rRNA inh HTS 16, rRNA inh HTS OD600 5 and rRNA inh HTS RFP 3.0.
`O=C(NCc1ccco1)C(=O)c1cn(CC(=O)N2CCCCCC2)c2ccccc12` gave Ecoli growth 0.69, A1 inh -0.9, AF4-AF9 inh 4.0, FGF22 binding inactive, Beta cell apopt -2, UCH37 inh 2.7, rRNA inh HTS 2, rRNA inh HTS OD600 5 and rRNA inh HTS RFP 6.7.
Screening Cc1cccc(NC(=S)Nc2c(C)n(C)n(-c3ccccc3)c2=O)c1C returned Ecoli growth 0.68, A1 inh 0.2, AF4-AF9 inh -0.9, FGF22 binding inactive, Beta cell apopt 0, T cruzi inh -5, UCH37 inh -1.3, rRNA inh HTS 11, rRNA inh HTS OD600 9 and rRNA inh HTS RFP -3.5.
For Cc1ccc(C(=O)CSc2ccc(-c3ccncc3)nn2)cc1 the results were Ecoli growth 0.68, A1 inh -0.4, AF4-AF9 inh 9.1, FGF22 binding inactive, Beta cell apopt -1, T cruzi inh -1, UCH37 inh 3.0, rRNA inh HTS 3, rRNA inh HTS OD600 3 and rRNA inh HTS RFP 1.8.
`CC(=O)Nc1ccc(C(=O)N/C(=C/c2ccccc2)C(=O)Nc2cccc(C(=O)O)c2)cc1` gave Ecoli growth 0.65, A1 inh 0.5, AF4-AF9 inh -0.5, Beta cell apopt -8, T cruzi inh -7, UCH37 inh 4.9, rRNA inh HTS 11, rRNA inh HTS OD600 8 and rRNA inh HTS RFP 2.3.
C[C@H](NC(=O)c1ccccc1Cl)C(=O)NCc1cccs1 was read as Ecoli growth 0.7, A1 inh 2.1, AF4-AF9 inh 0.1, FGF22 binding inactive, Beta cell apopt -2, T cruzi inh -7, UCH37 inh -1.3, rRNA inh HTS 11, rRNA inh HTS OD600 11 and rRNA inh HTS RFP 1.7.
For CCC(CC)c1nnc(NC(=O)C2=COCCO2)s1 the results were Ecoli growth 0.68, A1 inh 0.5, AF4-AF9 inh -13, FGF22 binding inactive, Beta cell apopt 0, T cruzi inh -5, UCH37 inh 1.2, rRNA inh HTS 1, rRNA inh HTS OD600 0 and rRNA inh HTS RFP 1.0.
Screening CCCOc1ccc(NC(=O)CC2C(=O)N(Cc3ccccc3)C(=S)N2Cc2cccs2)cc1 (centres undefined) returned Ecoli growth 0.75, A1 inh -0.5, AF4-AF9 inh -7.0, FGF22 binding inactive, Beta cell apopt 22, T cruzi inh 37, UCH37 inh -17, rRNA inh HTS -4, rRNA inh HTS OD600 -41 and rRNA inh HTS RFP -1.2.
Screening Cc1cc(Cl)c(C)c(S(=O)(=O)N2CCN(C(=O)C3CCCO3)CC2)c1Cl (centres undefined) returned Ecoli growth 0.69, A1 inh -0.3, AF4-AF9 inh 0.4, FGF22 binding inactive, Beta cell apopt 2, UCH37 inh 3.1, rRNA inh HTS -5, rRNA inh HTS OD600 -25 and rRNA inh HTS RFP -3.9.
`CC(C)CCN1CCNC(=O)C1CC(=O)NCCCN1CCOCC1` (centres undefined) gave Ecoli growth 0.68, AF4-AF9 inh 1.7, FGF22 binding inactive, T cruzi inh -10, UCH37 inh -5.1, rRNA inh HTS 1, rRNA inh HTS OD600 -1 and rRNA inh HTS RFP -0.9.

Three structures already listed, arranged by molar mass, low to high:
`COc1ccc(NC(=S)Nc2cccc(C(C)=O)c2)cc1OC` gave Ecoli growth 0.64, A1 inh -0.3, AF4-AF9 inh 0.8, FGF22 binding inactive, Beta cell apopt 0, T cruzi inh 4, UCH37 inh 3.1, rRNA inh HTS -9, rRNA inh HTS OD600 -13 and rRNA inh HTS RFP -0.5.
`CC(C)CCN1CCNC(=O)C1CC(=O)NCCCN1CCOCC1` (centres undefined) gave Ecoli growth 0.68, AF4-AF9 inh 1.7, FGF22 binding inactive, T cruzi inh -10, UCH37 inh -5.1, rRNA inh HTS 1, rRNA inh HTS OD600 -1 and rRNA inh HTS RFP -0.9.
`CC(=O)Nc1ccc(C(=O)N/C(=C/c2ccccc2)C(=O)Nc2cccc(C(=O)O)c2)cc1` gave Ecoli growth 0.65, A1 inh 0.5, AF4-AF9 inh -0.5, Beta cell apopt -8, T cruzi inh -7, UCH37 inh 4.9, rRNA inh HTS 11, rRNA inh HTS OD600 8 and rRNA inh HTS RFP 2.3.

Bioassay records as filed in PubChem.

Some of the compounds tested; rates above refer to the full screens.
